# VACV mCherry inh = qHTS for Stage-Specific Inhibitors of Vaccinia Orthopoxvirus: mCherry Reporter Primary qHTS | Vaccinia virus mCherry reporter infection, fluorescence; about a quarter of the inactives have no number | Potency, µM (series often up to 36.5 µM), for the others: at the top dose activity change, negative = inhibition, most hits filed as inhibitors | hit rate 0.63% among 310,000 | AID 720579, 2013; active = well fitted inhibition curve with a large enough effect; inconclusive = small, poorly fitted or top-dose-only effect; inactive = no such curve, though single readings can be large or run the other way; tested in A549 cells; further: nearly all actives have a fitted effect of over 35% in size; inactives centre near -10
# Vaccinia Venus = qHTS for Stage-Specific Inhibitors of Vaccinia Orthopoxvirus: Venus Reporter Primary qHTS; AID 720580, 2013; Vaccinia virus Venus reporter expression, fluorescence; hit rate 0.46% among 330,000; Potency, µM (highest dose often 36.5 µM), inactives show top-dose activity change, negative = inhibition, usual class: inhibitors; active means well fitted inhibition curve with a large enough effect; inconclusive means small, poorly fitted or top-dose-only effect; inactive means no such curve, though single readings can be large or run the other way; tested in A549 cells; further: nearly all actives have a fitted effect of over 30% in size; inactives centre near -10
# An asterisk follows results filed as active; i = inactive; u = inconclusive; x = no result given; & = joins results of further samples; [ ] = another dose, or the depositor's remark. On the % scale 0 is the no-effect control and ±100 the full control effect; potency means the concentration at half of the fitted maximal effect.
SMILES,VACV mCherry inh,Vaccinia Venus
O=C(/C=C/c1ccccc1[N+](=O)[O-])NCC1CCCO1 (stereo not drawn),i,-9.1%
O=C1CCC(C(=O)NCc2cccnc2)N1 (stereo not drawn),-8.6%,-8.5%
O=C1CN(C(=O)c2cc3ccccc3o2)c2ccccc2N1,i,-16.8%
CCOC(=O)N1CCN(C(=O)Nc2ccccc2)CC1,7.0%,5.2%
CCOC(=O)C1CCN(C2CC(=O)N(c3cccc(Cl)c3)C2=O)CC1 (stereo not drawn),i,-3.2%
COc1cc(CCC(=O)OCc2ccccc2C#N)cc(OC)c1OC,-16.3%,-18.9%
O=C(/C=C/c1ccccc1)c1ccc2ccccc2c1,-12.8%,-10.1%
O=C1c2oc3ccccc3c(=O)c2C(c2cccc(O)c2)N1c1nncs1 (stereo not drawn),-9.0%,-2.3%
O=S(=O)(CCN1C=CC(C(F)(F)F)=NCC1)c1ccc(F)cc1,-7.1%,-16.7%
N#Cc1cnn(-c2ccccc2)c1N,-12.9%,-21.8%
CCOCCCNC(=S)Nc1ccc2nc(N3CCCC3)cc(C)c2c1,-9.4%,-12.9%
O=[N+]([O-])c1ccc(N/N=C/c2c[nH]c3ccccc23)cc1,-1.4%,-29.4%
Cc1c(C(=O)NCCc2ccncc2)cnn1-c1nccc(-c2ccccc2C(F)(F)F)n1,-24.8%,-10.8%
CCNC(=O)c1ccc2nc(CCc3ccccc3)oc2c1,-12.9%,-9.5%
CCOC(=O)c1csc(NC(=O)c2ccc(OCC)cc2)n1,u,-26.3%
COc1ccc(C(=O)Nc2ccccc2C(=O)N2CCOCC2)cc1,-14.5%,-9.6%
COc1cccc(CNC(=O)C2CCN(C(=O)N3CC(C)Oc4ccccc43)CC2)c1 (stereo not drawn),-18.1%,-12.8%
COCCN(C(=O)COc1ccccc1)c1nnc(-c2cccnc2)s1,-17.6%,-5.6%
CCCCCCCCNC(C)C(O)c1ccc(SC(C)C)cc1 (stereo not drawn),-2.8%&-20.4%,u
CCN(CCCNC(=O)c1cc2c(=O)n(C)c3ccccc3c2s1)Cc1ccccc1,-3.2%[7.34 µM],-4.8%[7.34 µM]
Cc1ccc(NC(=O)CCCc2nc(-c3ccco3)no2)cc1Cl,-11.2%[7.34 µM],-6.9%[7.34 µM]
NNc1ccc([N+](=O)[O-])c2[nH][nH]c(=O)c12,i,-16.4%
CCc1noc(C)c1C(=O)N1CCCSC1=Nc1ccccc1,-22.5%,-9.9%
COc1ccc(NC(=O)CN2C(=O)CCn3nc(-c4cccn4C)cc32)cc1Cl,7.8%,5.0%
CCOc1ccc(C(=O)COC(=O)c2cc(=O)[nH]c3ccccc23)cc1,i,-17.3%
C=C(C)C(=O)Nc1ccc(NC(C)C)cc1,-6.0%,-7.1%
CN1CCN(c2ccc(S(=O)(=O)N3CCCCC3)cc2NC(=O)COc2ccc([N+](=O)[O-])cc2)CC1,-22.5%,-14.1%
O=C(CNC(=O)c1cnccc1C(F)(F)F)c1cccc(Cl)c1,i,-14.6%
Cc1cccc(OCCCC(=O)Nc2nccs2)c1,x,u
O=C(c1ccc(OC2CCN(Cc3ccccn3)CC2)cc1)N1CCCC(O)C1 (stereo not drawn),-12.7%,-17.1%
Cc1ccnc2nc(C(=O)OCC(=O)Nc3ccc([N+](=O)[O-])cc3Br)nn12,-12.3%,-5.7%
OCC1(CCOc2ccccc2)CCN(CCCn2cccn2)CC1,7.4%,2.8%
O=S(=O)(c1cccc(S(=O)(=O)N2CCC(Cc3ccccc3)CC2)c1)N1CCOCC1,-14.3%,-9.3%
OC(CCCN1CCCCC1)(c1ccccc1)c1ccc(C(F)(F)F)cc1 (stereo not drawn),u,-17.4%
CS(=O)(=O)Nc1ccc(C(=O)N2CCCCC2)cc1,-24.1%,-1.2%
CCCNC(=O)NC(=O)CN1CCCC1c1ccc2c(c1)OCCO2 (stereo not drawn),-9.6%,2.4%
COC(=O)C1CCN(CCCOc2ccc(CN3CCN(c4ccc([N+](=O)[O-])cc4)CC3)cc2)CC1,i,-12.7%
CN1CCN(C2CN(Cc3cn(Cc4ccccc4)nn3)S(=O)(=O)C2)CC1 (stereo not drawn),3.9%,4.7%
CN1C(c2ccc(F)cc2)=CS/C1=C(/C#N)c1nnc2n1-c1ccccc1SC2,i,-8.7%
Cc1cccc(CCNS(=O)(=O)c2ccc(S(=O)(=O)N3CCCCC3)cc2)c1,-3.0%,-23.0%

# Structures listed so far containing a furan ring, fused or not, in the order listed:
SMILES,VACV mCherry inh,Vaccinia Venus
O=C1CN(C(=O)c2cc3ccccc3o2)c2ccccc2N1,i,-16.8%
Cc1ccc(NC(=O)CCCc2nc(-c3ccco3)no2)cc1Cl,-11.2%[7.34 µM],-6.9%[7.34 µM]

# Additional structures follow.
SMILES,VACV mCherry inh,Vaccinia Venus
Cc1ccc(C(CNS(=O)(=O)c2ccc([N+](=O)[O-])cc2)N2CCN(C)CC2)cc1 (stereo not drawn),u,-7.3%
CCC(=O)N(C)CCc1cc2c(c(OC)c1/C=N/NS(=O)(=O)c1ccc(C)cc1)OCO2,i,-10.3%
CC1CC(C)CN(S(=O)(=O)c2ccc3c(c2)oc(=O)n3CC(=O)NCc2cccnc2)C1 (stereo not drawn),u,-19.3%
O=C(C1CCN(S(=O)(=O)c2cccc3cccnc23)CC1)N1CCN(c2ccc(Cl)cc2)CC1,8.4%,-24.1%
CC(NC(=O)c1ccncc1)c1ccc(Cl)cc1Cl (stereo not drawn),i,-14.5%
O=C1CCc2cc(S(=O)(=O)NC(Cc3ccccc3)C(=O)NCC3CCCO3)ccc2N1 (stereo not drawn),i,-8.1%
CC(C)NC(=O)c1cc2cc([N+](=O)[O-])ccc2s1,x,-10.6%
Cn1nc(C(C)(C)C)cc1C(=O)NN1CCOCC1,-10.2%,-14.2%
CC1(C)Cc2c(cnn2-c2ccccc2)C(=O)/C1=N\NC(=O)c1ccccc1N,i,-11.1%
Cc1ccccc1C(=O)Nc1cccc(N)c1,i,-10.0%
CCN1CCN(C(c2cccs2)C(C)NC(=O)C(C)C)CC1 (stereo not drawn),i,-9.8%
CCC(=O)Nc1ccc(C(=O)NNC(=O)Cc2ccccc2)cc1,-7.1%,-3.1%
O=C(N/C(=C/c1cccs1)C(=O)N1CCCCCC1)c1ccccc1,-10.2%,-13.3%
CCN1C(=O)C2(SC(NC(C)=O)=NN2C(C)=O)c2cc(C)cc(C)c21 (stereo not drawn),-2.5%,-15.6%
CC(C)CNC(=O)COC(=O)c1ccc(Cl)c(S(=O)(=O)N2CCc3ccccc32)c1,1.0%,-5.3%
Cc1ccc(C)c(CNS(=O)(=O)c2c(C(=O)N3CCCC3)c(C)n(C)c2C)c1,-15.6%,-11.3%
COc1ccc(Cc2nnc(NC(=O)C3CCCO3)s2)cc1OC (stereo not drawn),-12.7%,-9.5%
Cc1cc(NC(=O)c2sc(Nc3ccc(F)c(Cl)c3)nc2N)no1,-25.1%,0.4%
Cc1ccc(NC(=O)Cc2coc3ccc(C(C)C)cc23)cc1Cl,-7.5%,-0.9%
CS(=O)(=O)N1CCN(CC(=O)NC2CCCCC2)CC1,i,9.9%
Clc1ccc(-n2nnc(-c3cccnc3)n2)cc1Cl,i,2.8%
Cc1nc(C)c(-c2csc(Nc3ccc(F)cc3)n2)s1,u,-17.8%
O=C(C1CCN(S(=O)(=O)N2CCOCC2)CC1)N1CCC2(CC1)OCCO2,-0.9%,-16.1%
Cc1ccc(C)c(NC(=O)C2CCN(S(=O)(=O)c3c(C)noc3/C=C/c3cccs3)CC2)c1,-7.3%,-8.9%
COc1ccc2c(-c3ccc(OCCN4CCCCC4)cc3)c(-c3ccccc3OC)sc2c1,-10.8%,-16.7%
COc1ccc(OCC(=O)N2CCN(C(=O)c3ccc(OC)c(OC)c3)CC2)cc1,-3.5%,1.5%
COc1ccc(C(=O)N2CCN(Cc3ccccc3C(F)(F)F)CC2)cc1,i,-11.0%
CCSc1ncc(Cl)c(C(=O)Nc2ccc(S(=O)(=O)Nc3onc(C)c3C)cc2)n1,-3.9%,22.7%
CCCCCNC(=O)C(C1CC1)n1c(=O)c(-c2ccco2)nc2ccccc21 (stereo not drawn),-1.5%,-13.5%
O=C(O)c1ccc(/C=N/NC(=S)NC2CCCCC2)cc1,1.9%,-1.1%
O=C(Oc1cc(=O)oc2ccccc12)c1ccco1,-10.4%,-0.5%
O=C(NCC1CCC2(CCN(Cc3c[nH]c4ccccc34)CC2)O1)C1CCOCC1 (stereo not drawn),1.9%,-1.7%
CC(NC(=O)COC(=O)C12CC3CC(CC(O)(C3)C1)C2)c1ccccc1 (stereo not drawn),-17.1%,-15.8%
COC(=O)NCCOc1cc(C)ccc1C,-19.4%,-6.9%
Cc1ccc(C(=O)NNc2c3ccccc3nc3ccccc23)cc1,-17.7%,u
Cc1cccc(C)c1Nc1n[nH]c(=S)s1,-18.4%,-19.4%
CCOc1cc(/C=N/NC(=O)c2cccnc2)cc(Br)c1OCC(N)=O,i,2.2%
O=C(O)CSc1nnc(COc2cccc3ccccc23)n1Cc1ccccc1,-3.4%,-17.2%
CC(=O)C1=C(C)NC2(O)c3ccccc3C(=O)C12O (stereo not drawn),u,6.4%
CC(C)c1c(O)nc(SCc2ccc(F)cc2)[nH]c1=O,-4.3%,-14.5%
CS(=O)(=O)c1ccc(NC(=O)c2ccc3c(c2)S(=O)(=O)N=C2CCCCCN23)cc1,-19.1%,-7.1%
O=C(CN1CCN(C(=O)c2ccco2)CC1)NCc1ccc(Cl)cc1,-15.2%,-16.8%
CCCCn1c(N)c(N(CC(C)C)C(=O)c2ccc(OC)c(S(=O)(=O)N3CCOCC3)c2)c(=O)[nH]c1=O,i,-1.7%
CCCCC(=O)Nc1ccc2nc(SCC(=O)N3CCCC3)sc2c1,-5.7%,-9.0%
CC1=C(C(=O)Nc2ccc(C)cc2C)C(CC(C)C)n2nc(SCc3ccccc3C)nc2N1 (stereo not drawn),-3.7%,-3.1%
O=C(COC(=O)c1ccncc1)c1ccccc1,i,-4.2%
O=C(C1=C[C@H](c2ccccc2)C[C@H](OCc2ccc(CO)cc2)O1)N1CCOCC1,i,-6.4%
COc1ccc(CCNC(=O)c2cccs2)cc1OC,-20.1%,-2.1%
COc1ccc(N(CC(=O)Nc2ccccc2OC)S(=O)(=O)c2ccc(NC(C)=O)cc2)cc1,-25.7%,u
COCCn1c(C)cc(C(=O)COc2ncnc3ccc(Br)cc23)c1C,1.7%,-0.4%

# Fetched one by one from the list above (two):
SMILES,VACV mCherry inh,Vaccinia Venus
COc1ccc(CCNC(=O)c2cccs2)cc1OC,-20.1%,-2.1%
Cc1ccccc1C(=O)Nc1cccc(N)c1,i,-10.0%

# Going on with the list:
SMILES,VACV mCherry inh,Vaccinia Venus
COc1ccccc1Cc1c(-c2ccc(Cl)cc2)nc2ccc(Br)cn12,i,3.9%
CCOC(=O)C1(C)CCN1C(=O)c1cccc(C(F)(F)F)c1 (stereo not drawn),-9.6%,4.7%
CC(C)c1cc(NC(=O)c2ccccc2)cc(C(C)C)c1O,u,-7.8%
O=C(COC(=O)CSc1ccc2ccccc2c1)NC1CC1,i,-0.5%
COc1cc(/C=C/C(=O)O)cc(S(=O)(=O)Nc2ccccc2Cl)c1OC,-11.7%,-12.7%
Cc1ccc(NC(=S)NCc2ccccc2)cc1C,-11.2%,-15.4%
CC(=O)Nc1ccc(/C=N/NC(=O)c2cccc(S(=O)(=O)N3CCOCC3)c2)cc1,-14.4%,-10.4%
CCn1c(CNc2ccc(C)cc2)nnc1SCC(N)=O,-5.4%,-9.1%
Cc1c(-c2ccccc2)n(O)[n+]([O-])c1-c1ccccc1,i,-11.2%
Cc1cc(=O)[nH]c(SCC(=O)O)c1C#N,x,7.8%
CN(C)c1ccc(C(C(=O)NCc2ccccc2)N(Cc2ccco2)C(=O)c2snc(C(N)=O)c2N)cc1 (stereo not drawn),-26.9%,3.9%
CN(C)CCNC(=O)c1c(CSc2ccc(Cl)cc2)noc1C(=O)NCc1ccccc1,u,-26.1%
CCOc1ccc(S(=O)(=O)N2CCCC(C(=O)NCc3cccnc3)C2)cc1Cl (stereo not drawn),-19.5%,-29.2%
N#Cc1c(/N=C/C=C/c2ccccc2)sc2c1CCCC2,-16.5%,-12.3%
Cc1cc(C(=O)Nc2cc(C)on2)on1,i,-2.6%
CC(C)n1c(NCCc2ccccc2)nc2c1c(=O)n(C)c(=O)n2C,-17.3%,-29.0%
CCc1nc2ccccc2n1CC(=O)N1CCN(Cc2ccccc2)CC1,-0.2%,-9.5%
CCCCc1ccc(Nc2ncnc3nc[nH]c23)cc1,10µM*,-29.0%
COc1ccc(C(=O)NCC(=O)OCc2cccc(Br)c2)cc1,-8.4%,-12.3%
COc1ccc(/C=C2\SC(=S)N(CCC(=O)Nc3cccc(O)c3)C2=O)cc1OC,i,1.2%
CNC(=O)C1(C(F)(F)F)C/C(=C\CCO)CCCO1 (stereo not drawn),i,-7.4%
CCCCC(c1nc2ccccc2[nH]1)n1c(-c2ccccc2)nc2ccccc21 (stereo not drawn),i,-5.0%
CNS(=O)(=O)c1ccc(CNC[C@H]2O[C@@H](n3cnc4c(=O)[nH]c(N)nc43)[C@H](O)[C@@H]2O)cc1,2.1%,7.1%
CCCN1CNc2c(c(=O)[nH]c(=S)n2CCc2cccc(C)c2C)C1,i,-7.6%

# Compound activity deposited in PubChem BioAssay by National Center for Advancing Translational Sciences (NCATS).
